Assay outcomes from PubChem.
T cruzi repl: blocks replication of Trypanosoma cruzi | T. cruzi beta-gal in NIH3T3, luminescence, 90 h | inhibition, % (no concentration beside the values) | hit rate 1.4% among 300,000 | AID 1885;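 active means mean inhibition across valid replicates above about 55%, limit read from the data; inconclusive means mean below that limit but half or more replicates reach it; inactive means mean below it, under half of replicates reach it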;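 further: signal also drops with host cell toxicity which is not excluded here; 0% = plate median of DMSO wells and 100% = zero luminescence signal; higher percent means less beta-gal luminescence so fewer parasites; stock transfer was 50 nL into about 50 µL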
RanGTP-Impb inh: inhibitors of RanGTP-importin-beta interaction, primary screen, biochemical, FRET, CFP-Ran, YFP-importin-beta, homogeneous; hit rate 1.1% among 300,000; cell-free CFP-Ran/YFP-importin-beta FRET ratio; AID 2216; inhibition, % (test concentration not listed);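 active means most replicates above 15%; inconclusive means exactly half above 15%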;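 further: 0% = DMSO wells and 100% = Ran loaded with GDP instead of GTP; wells of about 40 µL received 100 nL stock; the first replicate is given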
Beta apoptosis: blocks beta cell apoptosis; INS-1E cytokine-induced death, ATP luminescence, 48 h; percent of positive-control rescue, neutral wells zero; AID 435005; hit rate 0.8% among 300,000; protection from apoptosis, % (concentration not given with the values);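 active means all replicates at 75% or more, or half of them and the mean; inconclusive means half reach 75% but not the mean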;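 further: 0% = cytokine-treated negative control wells and 100% = positive control rescue; higher means more ATP so stronger rescue from cytokine killing; wells of about 40 µL received 100 nL stock; the first replicate is given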
Calb FLC: affects C. albicans growth with fluconazole; C. albicans CaCi-2 (fluconazole-resistant clinical isolate) + fluconazole, Alamar Blue growth, 48 h; growth inhibition, % (concentration not given with the values); hit rate 0.57% among 300,000; AID 1979;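 active means most replicates above 75%; inconclusive means exactly half above 75%; inactive means most below 75%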;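 further: all wells also contain fluconazole at 8 µg/ml as a sub-toxic cotreatment; 0% = median of DMSO wells and 100% = median of geldanamycin control wells; wells of about 8 µL received 7.5 nL stock; the first replicate is given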
AF4-AF9 inh: MLL-AF4/AF9 protein interaction inhibition; P42568; AlphaScreen, biotin-AF4 peptide binding to FLAG-AF9; inhibition, % at 10 µM; hit rate 0.47% among 350,000;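 active means every replicate reaching a set inhibition limit, whatever the replicate mean, cut at about 25% in these data; inconclusive means mean inhibition reaches that limit but some replicates miss it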;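 further: 0% = plate neutral control median and 100% = total signal loss; the record names both 10 and 1 µM as test concentration; the first replicate is given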
Target sequence (P42568 whole entry, looked up): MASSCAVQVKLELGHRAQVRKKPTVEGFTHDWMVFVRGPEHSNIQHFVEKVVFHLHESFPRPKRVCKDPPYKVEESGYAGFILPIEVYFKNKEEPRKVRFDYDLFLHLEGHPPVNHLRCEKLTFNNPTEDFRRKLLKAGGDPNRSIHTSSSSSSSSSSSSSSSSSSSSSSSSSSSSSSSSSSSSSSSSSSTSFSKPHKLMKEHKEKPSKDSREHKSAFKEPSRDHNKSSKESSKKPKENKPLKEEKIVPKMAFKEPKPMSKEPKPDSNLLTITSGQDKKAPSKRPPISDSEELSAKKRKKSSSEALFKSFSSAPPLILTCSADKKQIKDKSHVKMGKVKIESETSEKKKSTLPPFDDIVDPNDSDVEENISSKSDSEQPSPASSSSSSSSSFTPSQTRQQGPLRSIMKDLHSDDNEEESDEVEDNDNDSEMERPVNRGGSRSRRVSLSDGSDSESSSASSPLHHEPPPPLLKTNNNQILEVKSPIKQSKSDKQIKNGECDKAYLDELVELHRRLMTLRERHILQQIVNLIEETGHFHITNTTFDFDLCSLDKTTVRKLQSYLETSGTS
A1 inh: inhibitors of the anti-apoptotic protein A1, read as caspase activation. hit rate 0.066% among 330,000. MEF A1-2A-BIM cells, Caspase-Glo 3/7 luminescence, 3 h; percent of clofoctol response, vehicle zero. caspase activation, % (concentration not given with the values);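 active means over half of replicate activation scores above 10%, or exactly half above 10 with the replicate mean above 10; inconclusive means replicate mean below 10 yet half the replicates above 10; inactive means over half of replicates below 10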;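 further: wells of about 30 µL received 50 nL stock; many hits fall short of the cut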
LANA-H2B inh: blocks KSHV LANA binding to histone H2A/H2B. Q9QR71. cell-free LANA-H2A/H2B peptide, fluorescence polarization. inhibition, % (no concentration beside the values). hit rate 0.6% among 320,000; in the data active means inhibition mostly above about 10%, no sharp cut-off; inactive means mostly below about 6.7%;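 further: stock transfer was 7.5 nL into about 10 µL; 0% = median of vehicle wells and 100% = median of positive control wells; one replicate is shown; the record names a cut of 25% in any replicate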
Vif A3G: inhibitors of Vif binding to APOBEC3G peptide, primary screen, biochemical, TR-FRET, GST-Vif 1-94, biotin-A3G peptide, dose response retest (AID 1117319); TR-FRET GST-Vif / biotin-A3G peptide binding; higher % means a stronger effect; test concentration not given here; strong numbers were not always called active; inhibition, %, or IC50 in µM where a hit was titrated; hit rate 0.57% among 260,000;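 active means above the screen mean plus three standard deviations and confirmed in dose response; inconclusive means results disagree or hit not tested in dose response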;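 further: Vif residues 1-94 fused to GST binding biotinylated APOBEC3G peptide 110-148; 0% = full assay without inhibitor and 100% = GST in place of GST-Vif; retest series ran down from 100 µM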
An asterisk follows results filed as active; ? = inconclusive; nt = no result given. Not a hit list (roughly 4.3% active in at least one column).

compound | T cruzi repl | RanGTP-Impb inh | LANA-H2B inh | Calb FLC | AF4-AF9 inh | Vif A3G | Beta apoptosis | A1 inh
CCN(C(=O)COC(=O)c1n[nH]c2ccccc12)c1ccccc1 | nt | nt | 2.9 | nt | -8.4 | nt | -1 | -1.0
Cc1ccc(C(=O)COC(=O)c2cn3ccccc3n2)cc1 | 0 | 2.6 | -2.2 | 10 | -3.8 | -12% | -3 | 0.6
O=C(NCC(c1cccnc1)N1CCN(c2ccccc2F)CC1)c1cccc(Cl)c1 (stereo not drawn) | 53 | 2.4 | -5.1 | -2 | nt | 2% | 3 | 0.6
COc1ccccc1CNC(=O)CCN1C(=O)c2ccccc2C1=O | -5 | 0.1 | -0.6 | -5 | 3.2 | -7% | -3 | 1.5
CC(C)c1csc(CN2CCN(Cc3ccccc3)C(CCO)C2)n1 (stereo not drawn) | 5 | ? | 0.1 | 7 | 0.0 | -4% | -3 | 0.9
COc1ccc(OC(C)C(=O)Nc2ccccc2F)cc1 (stereo not drawn) | -22 | nt | -11 | 3 | -0.5 | nt | 4 | 0.3
Cc1cc(C(C)(C)C)cc(C)c1S(=O)(=O)N1CC(=O)Nc2ccccc21 | 32 | 0.6 | -1.1 | -9 | 1.9 | 26% | 5 | 0.1
O=C(COC(=O)c1ccc(F)cc1)NCC1COc2ccccc2O1 (stereo not drawn) | nt | nt | -0.2 | nt | -0.6 | nt | -5 | -0.3
O=C(NCC1CCOCC1)c1cc(COc2ccc(F)cc2F)on1 | -12 | 0.5 | -3.8 | -15 | 0.3 | nt | -8 | 0.7
CC1CCN(C(=O)C2CCN(C(=O)c3cc4sccc4n3Cc3ccc(F)cc3)CC2)CC1 | 24 | 0.3 | 2.5 | -6 | nt | ? | -4 | -0.2
COc1cc(C)nc(Oc2ccc(OCCOc3ccc(C)cc3)nn2)n1 | -2 | -0.5 | 0.7 | 14 | nt | 0% | 0 | 0.0
Cc1ccccc1OC(=O)C1C(c2ccccc2)C(C(=O)O)C1c1ccccc1 (stereo not drawn) | -9 | -1.3 | -2.0 | 46 | nt | 6% | nt | 0.0
COC(=O)c1cc(Br)c(=O)n(-c2nccs2)c1 | 5 | -1.7 | -2.3 | 15 | nt | ? | 2 | 0.3
O=c1c([N+](=O)[O-])c[nH]c2ccccc12 | -17 | -0.1 | 15* | 7 | 0.9 | nt | -6 | -0.3
CCCCNc1nc2ccccc2nc1Cl | -10 | 2.4 | 4.6 | -8 | nt | 3% | 1 | 0.7
O=C(OCn1nnc2ccccc2c1=O)C12CC3CC(CC(O)(C3)C1)C2 | -7 | 0.2 | 0.6 | 5 | 1.1 | 2% | 3 | -0.7
COc1ccc2c(CC(=O)OCC(=O)NC(N)=O)coc2c1 | -5 | 2.8 | -3.1 | 7 | 15 | 6% | 2 | 1.0
CCc1cccc2c(C(=O)C(F)(F)F)cn(CC(=O)N3CCOCC3)c12 | -3 | -2.7 | -12 | 4 | -1.6 | nt | -1 | 0.2
Nc1c(C(=O)CSc2nnnn2-c2ccccc2)c(=O)[nH]c(=O)n1C1CC1 | nt | nt | 3.4 | nt | -0.9 | -2% | 1 | -0.4
O=[N+]([O-])c1cccc(S(=O)(=O)N2CCc3ccccc3C2)c1 | 34 | -0.6 | 6.5 | -3 | 2.4 | -9% | -2 | -0.4
COc1ccc(C(=O)NCC(=O)OCC(=O)c2ccc(Cl)cc2)cc1OC | -6 | 3.5 | 4.0 | -5 | -0.5 | -17% | 2 | 0.2
CCOC(=O)c1ccc(NC(=S)N2CCCC(C)C2)cc1 (stereo not drawn) | -7 | -0.8 | 0.9 | -5 | 3.4 | -9% | -10 | 0.4
CCN(CC)CCCNC(=O)Cn1ncc2c(=O)oc3ccc(C)cc3c21 | -2 | 0.0 | 2.3 | -3 | 11 | 12% | -3 | 0.0
COc1ccccc1/C=C/C(=O)NCc1ccccn1 | -3 | 4.6 | -3.6 | 1 | 1.2 | nt | -7 | -0.5
CCOC(=O)CC(NC(=O)C1c2ccccc2Oc2ccccc21)c1ccccc1Cl (stereo not drawn) | 31 | -2.0 | 4.7 | 26 | -46 | nt | -7 | 1.0
C=CCNC(=O)CC1C(=O)NCCN1Cc1ccc(-c2ccccc2)cc1 (stereo not drawn) | -19 | -0.6 | -9.2 | -11 | -15 | 1% | -4 | 0.0
CC(C)CC(=O)Nc1cc([N+](=O)[O-])ccc1Cl | -6 | -3.4 | 1.3 | 38 | -5.9 | -2% | -1 | -0.3
O=C(N/C(=C\c1ccco1)C(=O)N1CCOCC1)c1ccc([N+](=O)[O-])cc1 | 4 | 1.8 | -1.5 | 2 | 7.9 | -2% | -2 | -0.2
COCC(=O)Nc1ccc(S(=O)(=O)Nc2cc(C)nc(C)n2)cc1 | -12 | -5.6 | 2.6 | -3 | nt | -10% | -3 | 0.0
COc1cc(NC(=O)C[n+]2ccc(C(=O)c3ccccc3)cc2)cc(OC)c1 | nt | nt | -0.2 | nt | 5.7 | nt | 0 | 0.9
Cc1cccc(NC(=O)COC(=O)c2ccc3c(=O)n4c(nc3c2)CCC4)c1 | 8 | -1.0 | 1.4 | -17 | nt | 4% | 5 | 0.0
CCOC(=O)Nc1ccc2c(CN(C)Cc3ccc(F)cc3)cc(=O)oc2c1 | 9 | -3.8 | 6.0 | 1 | -1.0 | nt | -2 | 2.2
Cc1ccc(NC(=O)CN2CCc3ccccc3C2)cc1F | -9 | -1.3 | -3.0 | -12 | -2.0 | 10% | -3 | -0.1
CCOC(=O)N1CCN(C(=O)c2ccc3c(c2)sc2nc(-c4ccccc4)cn23)CC1 | 6 | 5.8 | 0.0 | 20 | nt | -14% | -9 | -1.1
Cc1ccc(NC(=O)C(=O)NCc2ccc(/C=C(/C#N)C(=O)NCc3cccnc3)o2)cc1C | -6 | 2.3 | 0.6 | -10 | nt | 10% | nt | 0.1
CNC(=O)c1c(C)nn(-c2ccc(F)c(Cl)c2)c1-c1cc(C)on1 | -12 | -0.1 | 1.7 | -2 | 1.2 | -3% | -2 | -0.5
CCCSc1cc(NCCOC(=O)CCC)c([N+](=O)[O-])c2nonc12 | 10 | 0.8 | 0.3 | -10 | nt | ? | -12 | -1.0
Cc1nc2ccccc2c(=O)n1/N=C/c1cn[nH]c1-c1ccccc1 | -7 | 0.6 | 4.7 | -1 | -0.4 | 10% | -1 | 0.1
CC12CC(NC(=O)N1c1cccc(C(=O)NCc3ccccn3)c1)c1ccccc1O2 (stereo not drawn) | -6 | -0.2 | 4.8 | 0 | -5.1 | nt | -11 | 0.7
COc1ccc(C(NC(=O)/C=C\c2ccco2)c2ccc(OC)c(OC)c2)cc1 (stereo not drawn) | 6 | -0.6 | 3.7 | 20 | nt | 10% | 1 | ?
COc1ccc(OC)c(-n2nnnc2SCC(=O)N2CCN(C(=O)c3ccco3)CC2)c1 | 11 | -0.3 | 4.1 | -6 | 1.9 | nt | -1 | -0.2
COc1ccc(CC(=O)Oc2ccc(Cl)cc2Br)cc1S(=O)(=O)N1CCOCC1 | -4 | 1.2 | -0.1 | -2 | 0.9 | -4% | 1 | 1.1
COc1cccc(NC(=O)Nc2ccc(Cc3ccncc3)cc2)c1 | 39 | -0.8 | 2.1 | 14 | 5.2 | 0% | 10 | 0.3
COc1ccc(CNC(=O)CSc2nnc3c(n2)[nH]c2ccccc23)cc1 | -3 | 8.8 | -4.3 | -1 | 0.2 | -12% | -3 | 0.3
O=S1(=O)CCC(NCC2CCCO2)C1 (stereo not drawn) | -14 | 0.0 | -0.2 | 2 | nt | -1% | 2 | 0.0
O=C(N/N=C/c1cccnc1)c1ccc(S(=O)(=O)N2CCCCCC2)cc1 | -12 | 2.9 | 8.4 | -3 | 4.0 | -9% | 0 | 0.1
O=C(CCC(=O)N1CCOc2ccc(Cl)cc21)NCCCN1CCC(Cc2ccccc2)CC1 | 5 | 1.6 | 2.5 | -5 | -0.3 | nt | 14 | -0.2
CC[n+]1c(/C=C2\C=C(C)CC(C)C2)sc2ccccc21 (stereo not drawn) | 23 | -0.2 | 2.4 | -11 | nt | 26% | -3 | -0.6
Cc1ccc(C(=O)N2CCCC(CCC(=O)NCc3ccccc3F)C2)cn1 (stereo not drawn) | -9 | -1.3 | 3.6 | 5 | -1.1 | 25% | -2 | -1.3
Cc1ccc(C2=NNC(=O)C(c3ccc(Cl)cc3)C2)cc1 (stereo not drawn) | 2 | 8.6 | -7.5 | -1 | nt | -2% | -22 | -0.2
COc1cccc(C2C(C(N)=O)=C(C)Nc3nc(CCCO)nn32)c1OC (stereo not drawn) | -8 | -2.0 | 0.4 | 5 | -1.4 | 4% | 0 | -0.4
COc1cccc(/C=N/n2c(COc3ccccc3)n[nH]c2=S)c1 | -4 | -1.3 | 4.7 | -2 | -3.4 | -2% | -8 | -0.1
O=C(c1ccccc1)N1CCCOC1c1ccccc1 (stereo not drawn) | ? | 1.5 | -0.3 | 3 | nt | -6% | 0 | 0.1
CC(C)=CCN1CCN(Cc2cn[nH]c2C2CCCCC2)CC1CCO (stereo not drawn) | 1 | 2.9 | -1.7 | 13 | -0.2 | 12% | -1 | 0.0
Cc1ccc(Cl)cc1NC(=O)COC(=O)CCN1C(=O)C2CC=CCC2C1=O (stereo not drawn) | nt | nt | -9.2 | nt | -3.9 | -3% | -4 | -1.0
Cc1occc1C(=O)NNC(=S)NCC(C)C | -19 | 2.6 | 1.4 | 4 | 1.6 | -3% | 1 | -0.9
O=C(CC1OC(=O)c2ccccc21)NC1CCCCC1 (stereo not drawn) | -8 | -2.9 | 0.9 | 0 | nt | 11% | -4 | 0.0
CCN(CC)S(=O)(=O)c1cccc(NC(=O)COc2ccc(Cl)cc2Br)c1 | 12 | -4.9 | -6.0 | -7 | -1.3 | 2% | 1 | -0.6
Cc1ccc(-n2c(Cn3nc(C(F)(F)F)cc3C)n[nH]c2=S)cc1 | -11 | 5.7 | 1.1 | 23 | -67 | 7% | -4 | -0.4
COc1ccccc1-c1sc2cc3c(cc2c1C#CCO)OCO3 | nt | nt | -7.6 | nt | 7.6 | nt | -2 | 0.8

Carrying on:
compound | T cruzi repl | RanGTP-Impb inh | LANA-H2B inh | Calb FLC | AF4-AF9 inh | Vif A3G | Beta apoptosis | A1 inh
O=C(c1cc2c(=O)oc3ccccc3c2s1)N1CCOCC1 | -4 | 6.4 | -6.3 | 1 | nt | 0% | 4 | 0.9
NC(=O)c1sc2nc3c(c(-c4ccc(Cl)cc4)c2c1N)CCCC3 | ? | 3.0 | 0.6 | ? | nt | -7% | -3 | 0.1
O=C(NCCC1CCCCN1S(=O)(=O)c1ccc(Cl)cc1)C(=O)NCCN1CCOCC1 (stereo not drawn) | 9 | -2.5 | -1.0 | -3 | 2.9 | nt | -3 | -0.1
Cc1ccc(C)c(S(=O)(=O)N2CCCOC2CNC(=O)C(=O)NC2CCCCC2)c1 (stereo not drawn) | -2 | -1.0 | -0.7 | -3 | 0.7 | -1% | 26 | -0.2
